TAR Tat displ: HIV-1 TAR-Tat binding disruption; HIV-1 TAR RNA, Tat peptide displacement FRET; active compounds read high; z-score (concentration not given with the values); 100,000 tested, 0.6% active; AID 1259389;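 further: score is relative to mean and SD of negative controls; some compounds called inactive have numbers as strong as hits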
CDC25B-CDK2 inh: human CDC25B-CDK2/CyclinA binding inhibition | P30305+P24941 | HTRF CDC25B-CDK2/CyclinA binding, anti-His/anti-Flag; active compounds read high | z-score (concentration not given with the values) | 94,000 tested, 0.72% active;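 further: score is relative to mean and SD of negative controls; strong numbers were not always called active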
Numbers without * were called inactive; x = not tested or not shown.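 How the source made its calls: active means z-score from 3 up in half or more of its runs; inactive means the rest.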

SMILES	TAR Tat displ	CDC25B-CDK2 inh
COc1cccc(CCN[C@H]2CS(=O)(=O)C[C@@H]2S(=O)(=O)c2cccs2)c1	-3.1	-0.62
Cc1ccc(S(=O)(=O)c2nc(S(C)(=O)=O)sc2NCC2CCCO2)cc1 (stereo not drawn)	0.73	0.95
O=S1(=O)CC(O)C(S(=O)(=O)Cc2cccc(C(F)(F)F)c2)C1 (stereo not drawn)	x	-1
Cc1ccc(CN(C(=O)c2oc3ccc(Br)cc3c2C)C2CCS(=O)(=O)C2)o1 (stereo not drawn)	1.7	0.03
Cc1nc2ccccn2c(=O)c1NC(=O)c1ccc(F)c(F)c1	0.82	x
COc1ccccc1CNc1ccc2nnc(-c3ccccc3)n2n1	x	0.38
COC(=O)CN1C(=O)CSc2ccc(S(=O)(=O)N3CCC(C)CC3)cc21	-0.64	x
CCCCCNC(=S)NNC(=O)OCC	x	-0.21
O=C(O)Cn1nnc(-c2ccc(F)cc2)n1	x	-1.1
COc1ccc(-c2nc(SCc3cc(=O)n4cc(C)sc4n3)n[nH]2)cc1	0.98	x
CC(C)c1cc(C(=O)Nc2c(F)cc(F)cc2Br)no1	0.76	-0.76
COC(=O)c1c(NC(=O)c2nn(-c3ccc(F)cc3)ccc2=O)sc2c1CCCC2	0.93	-0.84
Cc1ccc(S(=O)(=O)NCCCc2ccccc2)c2nsnc12	0.82	-2.2
CCCOC(=O)c1ccc(Nc2nc(SC)nc3c2CCC3)cc1	2.4	0.42
CN(Cc1ccco1)C(=O)c1ccc(N2CCCS2(=O)=O)cc1	0.57	x
Cc1ccc(O)c(Nc2nc3ccccc3c3nncn23)c1	0.92	-0.26
O=c1cc(CO)oc(CN2CCN(c3ccccn3)CC2)c1O	x	-0.36
c1ccc(-c2cc(NC3CCCC3)n3cnnc3n2)cc1	-0.17	-0.3
Cc1cccc(CN2c3ccccc3NC3=C(C(=O)CCC3)C2c2ccco2)c1 (stereo not drawn)	-9.3	x
COC(=O)c1c(C(=O)OC)c2c3ccccc3ccn2c1C(=O)OC	x	-5.2

An excerpt from above in order of heavy-atom count, lowest first.
SMILES	TAR Tat displ	CDC25B-CDK2 inh
O=C(O)Cn1nnc(-c2ccc(F)cc2)n1	x	-1.1
c1ccc(-c2cc(NC3CCCC3)n3cnnc3n2)cc1	-0.17	-0.3
Cc1ccc(O)c(Nc2nc3ccccc3c3nncn23)c1	0.92	-0.26
CCCOC(=O)c1ccc(Nc2nc(SC)nc3c2CCC3)cc1	2.4	0.42
COc1ccccc1CNc1ccc2nnc(-c3ccccc3)n2n1	x	0.38
Cc1ccc(S(=O)(=O)c2nc(S(C)(=O)=O)sc2NCC2CCCO2)cc1 (stereo not drawn)	0.73	0.95

Next section
SMILES	TAR Tat displ	CDC25B-CDK2 inh
OCCOCCNc1ncnc2c1c(-c1ccccc1)cn2-c1ccc(Cl)cc1	x	-1.6
CCc1ccc(-c2cc(C(=O)NC(C)(C)C)c3ccccc3n2)cc1	x	-4.4
Cc1nc2c(c(C)nn2C(C)(C)C)c(C)c1CCC(=O)NCCC1=CCCCC1	2.7	-3
CC(C)Cc1nnc2sc(NC(=O)C3CCCCC3)nn12	1.1	-0.96
Cc1ccc2c(n1)sc1c(=O)n(CCc3ccccc3)nnc12	-0.15	-0.09
CCC(C)NC(=O)c1cc2c(s1)-c1ccsc1CC2 (stereo not drawn)	0.67	x
COc1cc(SC)c(OC)cc1SC	x	-0.74
COc1cccc(NC(=O)NC2COc3ccc(OC)cc3C2)c1 (stereo not drawn)	0.14	x
CC(C)N=C(C(=O)NC(C)C)C(F)(F)F	x	-2.1
Cc1ccsc1CNC(=O)CCC(=O)O	x	0.19
COC(=O)CN(C#N)c1nc(C)cc(OC)n1	3.4	-0.73
CCOC(=O)CN=C1NC(=O)C(c2ccccc2)(c2ccccc2)N1	x	-3.5
Cc1ccc(NS(=O)(=O)c2cc(Br)cc3c2N(C(=O)C2CC2)CC3)cc1Cl	x	-0.72
O=S(=O)(N/N=C/c1ccc2ccccc2c1)c1ccc(Cl)cc1	x	1.6
CCN(CC)CCCNc1ncnc2onc(C)c12	-0.64	x
O=[N+]([O-])c1cccnc1Oc1ccc(F)cc1	x	-0.13
CCOc1cc(C2CC(=O)N3CN(c4ccc(F)cc4)CSC3=C2C#N)ccc1O (stereo not drawn)	30*	1.4
Cc1nn(CCCC(=O)NCCCN2CCOCC2)c(=O)c2cc3sccc3n12	-1.1	0.01
CCN(C(=O)Cn1c(=O)oc2cc(S(=O)(=O)N3CCOCC3)ccc21)c1ccccc1	-0.03	-1.1
Cn1c(=O)n(C)c2cc(Nc3cc(N4CCOCC4)ncn3)ccc21	-0.51	0.07
CN1CCN(CCOc2ccccc2)CC1	x	0.67
Cc1ccc(O)c(C2=NN3C(C2)c2cc(Cl)ccc2OC3c2cccnc2)c1 (stereo not drawn)	1.7	-0.76
Cc1ccccc1OCc1nc(C#N)c(N2CCCCC2)o1	-0.65	-0.8
Cn1c(O)c(C2=Nc3ccccc3SC(c3cccnc3)C2)c(=O)n(C)c1=O (stereo not drawn)	1.7	-1.6
Cc1ccc(N2C(=O)CSC23CCC(C(C)(C)C)CC3)cc1 (stereo not drawn)	x	2.5
O=C(Nc1ccccc1-c1nc2ccccc2[nH]1)c1ccc(S(=O)(=O)N2CCCCC2)cc1	x	-3.2
O=C(Cn1ncn2nc(-c3ccccc3)cc2c1=O)NCc1ccc2c(c1)OCO2	2	x
COc1cccc(NC(=O)N2CCCC2c2cccs2)c1 (stereo not drawn)	0.02	-1.5
COCCn1nnc2cc(S(=O)(=O)N(C)CC(=O)O)ccc21	1.6	1.6
Cc1noc(C)c1C1CCCN1Cc1ccccc1Br (stereo not drawn)	1.7	x
COC(=O)c1c(NC(=O)CN(c2ccccc2)S(=O)(=O)N(C)C)sc2c1CCCC2	0	-0.12
N#Cc1c(Nc2ccccc2C(F)(F)F)s[nH]c1=O	x	-1.2
Cc1ccc(C)c(-c2ccc(=O)n(Cc3ccc(F)cc3Cl)n2)c1	2	0.58
Cc1ccc(N2C(=O)c3ccccc3C2Nc2ccccc2Br)nc1 (stereo not drawn)	-0.33	-0.77
Cc1sc(N)c(C(=O)c2ccccc2)c1C	-2.5	-0.16
O=C1CC(CSc2nccc(-c3cccnc3)n2)=NN1c1ccc(Cl)cc1	x	-0.37
COC(=O)C1=C(C)NC2=C(C(=O)CC(c3cccs3)C2)C1c1ccsc1 (stereo not drawn)	-1.2	-1.3
C=CCNC(=O)c1c(NC(=O)c2csnn2)sc2c1CCCC2	0.82	-1.6
COc1cc(Cl)cc(C2NC(=O)c3c(sc4c3CCN(C)C4)N2)c1O (stereo not drawn)	-0.69	-0.64
Cn1c(=O)c2c(nc(CN(Cc3ccccc3)Cc3ccccc3)n2CC(=O)C(C)(C)C)n(C)c1=O	-0.83	-1.3

A second format for part of the listing above:
COC(=O)c1c(NC(=O)CN(c2ccccc2)S(=O)(=O)N(C)C)sc2c1CCCC2
  TAR Tat displ: 0
  CDC25B-CDK2 inh: -0.12

N#Cc1c(Nc2ccccc2C(F)(F)F)s[nH]c1=O
  TAR Tat displ: x
  CDC25B-CDK2 inh: -1.2

Cc1ccc(C)c(-c2ccc(=O)n(Cc3ccc(F)cc3Cl)n2)c1
  TAR Tat displ: 2
  CDC25B-CDK2 inh: 0.58

Cc1ccc(N2C(=O)c3ccccc3C2Nc2ccccc2Br)nc1 (stereo not drawn)
  TAR Tat displ: -0.33
  CDC25B-CDK2 inh: -0.77

The results go on.
SMILES	TAR Tat displ	CDC25B-CDK2 inh
Cc1nn(C(C)C(=O)NCCC2=CCCCC2)c(=O)c2c1sc1ccccc12 (stereo not drawn)	0.65	-1.9
CC(C)CCNC(=O)c1cc2c(Cl)ccc3c2n1CCO3	1	x
O=C(Cn1ccc2cc(S(=O)(=O)N3CCCC3)ccc21)NC1CCCCC1	-0.21	x
Cc1[nH]c2cc(C(=O)O)ccc2c1C	-0.31	-3.6
C#CCOC(=O)Nc1c(-c2ccccc2)noc1C	x	-0.86
COc1cc(NC(=O)Cn2cnc(S(=O)(=O)N3CCCC3)c2)cc(OC)c1	1.9	x
Cc1nn(S(C)(=O)=O)c(C)c1S(=O)(=O)N1CCCCC1	0.62	x
Cc1noc2ncnc(N3CCN(c4ncccn4)CC3)c12	-0.33	x
Cc1cc(C)n(-c2nnc3c(n2)[nH]c2ccccc23)n1	2.4	0.04
CCN1CCN(C(=O)c2cc3c(s2)-c2ccccc2S(=O)(=O)C3)CC1	0.75	0.1
C=CCOc1ccc(C(=O)Oc2cccc(-n3cnnn3)c2)cc1	-0.07	-1.4
O=C(NNC(=O)c1cccs1)c1ccc2nonc2c1	x	-2.2
CC(=O)OC1CCC(OC(C)=O)c2c1n([O-])c(C)c(C)[n+]2=O (stereo not drawn)	x	0.52
COc1ccc(-c2nn3c(C)nnc3s2)cc1	-1.3	0.14
CCOC(=O)N1CCC(NC(=O)C2CCN(C(=O)N3CC(C)Oc4ccc(C)cc43)CC2)CC1 (stereo not drawn)	2.7	x
C=CCSc1nn(C)c2nc3c(c(=O)n12)C(C)(C)Cc1ccccc1-3	0.31	-2.2
O=c1[nH]ccn(-c2ccc(F)c(Cl)c2)c1=O	0.97	-0.37
CS(=O)(=O)c1nc(S(=O)(=O)c2ccc(Cl)cc2)c(NCCc2ccccc2)s1	-1.4	-0.3
O=C(Nc1nc(-c2cc3ccccc3oc2=O)cs1)c1ccc(F)cc1	x	0.09
CCCn1cc(S(=O)(=O)c2ccc(Cl)cc2)c(=O)c2cc(OC)ccc21	1.4	-0.34
COCCNC(=O)CCc1nnc2ccc(N3CCCC3)nn12	0.45	x
O=C(Cn1nnc2ccccc21)c1ccc(Br)cc1	0.5	-2.6
Cc1cccc2cc3c(nc12)N(C(=O)CCc1ccccc1)CC3	-0.65	-2.2
O=C(Nc1cccnc1Cl)c1ccc2c(Cl)c3c(nc2c1)CCC3	x	-1.2
COc1ccc(Cl)cc1NCC(O)Cn1nnnc1-c1ccccc1 (stereo not drawn)	0.9	-0.43
CN(CCCc1ccco1)S(=O)(=O)c1ccc(-c2cc(C(F)(F)F)on2)s1	0.05	x
Cc1nc(-c2ccc(S(=O)(=O)N3CCCN(CCc4ccccc4)CC3)s2)cs1	x	5.4
Cc1ccc2c(C)nc(Nc3ncc4c(n3)CC(c3ccc(F)cc3)CC4=O)nc2c1 (stereo not drawn)	-1	0
CCCCCOC(=O)C1=C(C)Nc2ncnn2C1c1ccc(C)cc1 (stereo not drawn)	-0.9	-0.78
Cc1nc(NC2=NCN(Cc3ccccc3)CN2)nc2ccccc12	x	6
CCc1ccc(C(=O)Nc2ncc(C)cc2Br)cc1	x	-1.2
O=S(=O)(NCc1nnnn1-c1ccccc1)c1ccccc1	1.1	x
Cc1cccn2cc(CNC(=O)C(C)(C)C)nc12	x	-1.4
Cc1ccc(-c2nnc3c4ccccc4c(C)nn23)cc1S(=O)(=O)N1CCC(C)CC1	1.2	-0.26
Brc1ccc(-c2cn3c4c(sc3n2)CCCC4)cc1	1.3	-1.2
Nc1nc(SCc2cc(=O)n3ccsc3n2)n[nH]1	0.85	x
O=C1c2oc3ccc(Cl)cc3c(=O)c2C(c2ccccn2)N1CCCN1CCOCC1 (stereo not drawn)	0.54	x
CCSC1=C(C#N)C(c2ccc3c(c2)OCO3)CC(=O)N1 (stereo not drawn)	0.64	-1.4
CSc1ccc(-c2nc3c[n+](CC(N)=O)ccn3c2NC2CCCC2)cc1	-8.3	-0.08
NC(=O)c1c(NC(=O)c2cc(-c3ccc4c(c3)OCO4)on2)sc2c1CCCC2	x	-0.97
CCCC1=C(C(=O)OCC)C(c2ccc(O)cc2)n2c(nc3ccccc32)N1 (stereo not drawn)	-0.07	-0.2
COc1ccc(-c2noc(-c3nnn(-c4ccccc4Cl)c3N)n2)cc1	0.79	0.92
COc1ccc(OC)c(C2C=C(C(=O)O)Nc3nnnn32)c1 (stereo not drawn)	2.9	x
CC(=Nc1ccccc1)c1cccs1	x	-1.4
CC(C)CCC(NC(=O)Nc1ccc2c(c1)OCCO2)c1c(-n2cccc2)sc2c1CCN(C)C2 (stereo not drawn)	0.33	x
Cn1c(=O)c2[nH]c(NCc3ccccc3Cl)nc2n(C)c1=O	3.1	-1.6
Cc1nc(N2CCCCC2)cc(N2CCN(C(=O)Nc3ccc(Cl)cc3)CC2)n1	0.73	-0.16
O=C(C1CCCC1)N(c1cccc(Cl)c1)C1C=CS(=O)(=O)C1 (stereo not drawn)	-1	-1.5
Cc1[nH]nc2c1C(c1ccc(OCc3ccccc3)cc1)C(C#N)=C(N)O2 (stereo not drawn)	0.79	1.3
COC(=O)Cn1cc(C(=O)c2ccco2)c2ccccc21	1.5	-1
COCCN1CCn2c(nc3cc(Cl)ccc32)C1	0.82	0.96
N#C/C(=N\Nc1cc(C(F)(F)F)cc(C(F)(F)F)c1)C(=O)c1ccco1	x	-1.7
CN1CCN(CCNC(=O)C2CCCN(c3nc4cccnc4s3)C2)CC1 (stereo not drawn)	-1	x
COc1ccccc1NC(=O)N1CCC2(CC1)Nc1cccnc1NC2=NC1CCCC1	0.26	x
O=C(NCCc1nc2ccccc2[nH]1)Nc1ccccc1	0.25	-0.82
CCCc1ccc(S(=O)(=O)N2CCC(N3CCOCC3)CC2)cc1	0.66	x
COc1ccc(Cn2c(=O)n(Cc3ccco3)c(=O)c3oc4ccccc4c32)cc1	1.8	x
COc1ccc(C(=O)c2coc3ccc(OC(C)=O)cc23)cc1	x	1.6
CCC(O)c1nc2ccccc2n1CCOc1ccccc1 (stereo not drawn)	1.2	0.02
O=C(Cn1c2c(c(-c3ccccc3Cl)cc1=O)CCC2)NCc1ccc2c(c1)OCO2	0.48	x
CC1CCN(c2cc(NCCCN(C)C)c3c4c(onc24)-c2ccccc2C3=O)CC1	16*	1.8
COC(=O)C(C)Sc1nc2c(cnn2-c2ccc(F)cc2)c(=O)[nH]1 (stereo not drawn)	x	0.55

Compound activity: PubChem BioAssay, Center for Chemical Genomics, University of Michigan
